Assay outcomes as filed in PubChem.
GIV Gai3 FP: blocks GIV peptide binding to rat Galpha-i3 | P08753 | Galpha-i3/FITC-GIV peptide fluorescence polarization, 90 min; hits give low values; scaled: aluminum fluoride 0%, vehicle 100% | percent of control (FP), % (concentration not given with the values) | actives 0.42% (n = 210,000);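 active = replicate mean at 85% of control or lower, very high polarization wells dropped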;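 note: wells of about 15 µL received 100 nL stock; the first replicate is given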
Target sequence (P08753 whole entry, looked up): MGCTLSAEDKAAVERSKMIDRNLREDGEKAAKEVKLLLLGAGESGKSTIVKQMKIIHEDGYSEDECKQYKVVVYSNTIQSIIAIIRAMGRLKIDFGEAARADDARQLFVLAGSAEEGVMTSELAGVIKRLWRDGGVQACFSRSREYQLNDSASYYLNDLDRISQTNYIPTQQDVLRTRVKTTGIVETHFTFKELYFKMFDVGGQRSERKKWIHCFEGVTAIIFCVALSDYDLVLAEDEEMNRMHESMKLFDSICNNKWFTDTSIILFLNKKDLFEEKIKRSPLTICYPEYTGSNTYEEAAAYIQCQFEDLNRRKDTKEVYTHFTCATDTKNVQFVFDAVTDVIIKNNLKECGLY
* hit, by the source's call. The list is partial; the hit share may differ from the screen's.

SMILES	GIV Gai3 FP
C=CCOC(=O)C1=C(C)OC(N)=C(C#N)C1c1cccs1 (stereo not drawn)	108
COc1ccc(S(=O)(=O)Nc2cc(C(=O)N(C)Cc3ccccc3)ccc2N2CC3CC(C2)c2cccc(=O)n2C3)cc1 (stereo not drawn)	103
COc1ccc(NC(=O)CSc2n[nH]c(N)n2)c(OC)c1	100
Cc1ccc(CN(Cc2cc(=O)n3nc(-c4ccccc4)sc3n2)CC(C)C)cc1	113
CCOC(=O)c1c(NC(=O)Cn2c(-n3nc(C)cc3C)nc(C)c(C)c2=O)sc2c1CCCCC2	117
CCOC(=O)N1CCC(Nc2ncnc3c2cnn3-c2ccc(OC)cc2)CC1	105
COc1ccc(N2C(=O)/C(=C/c3ccccc3OC)N=C2c2cccc(OC)c2)cc1	120
CCOc1ccc(Nc2nc(-c3nnn(-c4ccc(OCC)cc4)c3C)ns2)cc1	107
O=C(C1CCN(S(=O)(=O)c2ccc(-c3noc(-c4ccc5c(c4)OCO5)n3)cc2)CC1)N1CCCC1	104
CC(=O)Nc1ccc(N2CCN(CC(=O)N3CCCC3)CC2)c(C(=O)O)c1	102
CCNC(=O)c1cnn2c3c(cnc12)CCCCCC3	112
CSc1ncccc1-c1nc(-c2ccc3oc(C)nc3c2)no1	100
Cc1ccc(-n2nnnc2CNC(=O)C2CCCCC2)cc1C	102
CCCc1cc(C2CCCN2S(=O)(=O)c2ccc(Cl)s2)no1 (stereo not drawn)	97
CCSc1c(C(=O)Nc2ccc(Br)cc2)ccc2c1C(=O)c1ccccc1C2=O	109
O=C(c1ccsc1)N1CCN(S(=O)(=O)c2ccc3[nH]c(=O)sc3c2)CC1	101
COC(=O)CN1C(=O)C2(C(C#N)=C(N)Oc3n[nH]c(-c4ccc(Cl)cc4)c32)c2ccccc21 (stereo not drawn)	101
COc1ccccc1N1CCN(c2ncnc3sc(C(=O)Nc4ccc5c(c4)OCO5)c(C)c23)CC1	111
CC(C)CN(Cc1ccccc1)Cc1cc(=O)n2nc(C(C)(C)C)sc2n1	121
CCOC(=O)C1=C(C)NC2=C(C(=O)C(C(=O)OCC)C(c3cccc(OC)c3)C2)C1c1cccs1 (stereo not drawn)	97
CC1Cc2ccccc2N1C(=O)c1cccn(Cc2c(F)cccc2Cl)c1=O (stereo not drawn)	103
Cc1c(Cl)cccc1NC(=O)CSC1=C(C#N)C2(CCCCC2)C(C#N)C(=O)N1 (stereo not drawn)	104
COc1ccc(N2CCN(S(=O)(=O)c3cc(-c4nc(C)cs4)sc3C)CC2)cc1	105
Cc1nc(-c2ccc(S(=O)(=O)N3CCc4ccccc4C3)cc2)co1	104
Cc1cc(N2CCCC2)nc(N2CCN(C(=O)C(C)(C)C)CC2)n1	107

Part of the list above, bar-delimited.
SMILES | GIV Gai3 FP
Cc1c(Cl)cccc1NC(=O)CSC1=C(C#N)C2(CCCCC2)C(C#N)C(=O)N1 (stereo not drawn) | 104
CCNC(=O)c1cnn2c3c(cnc12)CCCCCC3 | 112
CCCc1cc(C2CCCN2S(=O)(=O)c2ccc(Cl)s2)no1 (stereo not drawn) | 97

Later entries.
SMILES	GIV Gai3 FP
CCc1onc(C)c1C1CCCN1Cc1ccc(C)cc1C (stereo not drawn)	112
COc1ccccc1O[C@@H]1O[C@H](COC(C)=O)[C@@H](OC(C)=O)[C@H](OC(C)=O)[C@H]1OC(C)=O	114
O=C(NCc1ccc(Br)cc1)c1cccc(Nc2ncc(-c3ccc(F)cc3)cn2)c1	106
COc1cccc(NC(=O)c2ccc3noc(-c4ccc(Cl)cc4)c3c2)c1	99
CCOc1ccc(C2=NN3C(C2)c2cc(Cl)ccc2OC3c2ccccc2Cl)cc1 (stereo not drawn)	100
Cc1ccc(C(=O)Nc2cnc3oc(-c4ccc(C)cc4)nn3c2=O)cc1	102
COc1cccc(NC(=O)CCc2c(C)nn(-c3ccc4nncn4n3)c2C)c1	99
Cc1c(C(=O)N2CCN(Cc3ccc4c(c3)OCO4)CC2)sc2ncnc(N3CCC(C)CC3)c12	123
Cc1nc(CN2C(=O)COc3cc(S(=O)(=O)N4CCN(C)CC4)c(Cl)cc32)no1	104
CCCC1Oc2ccc([N+](=O)[O-])cc2C2OC(c3ccccc3)(c3ccccc3)c3ccccc3N12 (stereo not drawn)	102
Cc1ccccc1-c1cc2n(C)c(C)c(CCC(=O)NC(C)C)c(=O)n2n1	108
O=S(=O)(NCc1cccs1)c1ccc(-c2cnc(C3CCC3)o2)s1	106
COc1ccc(Nc2nc(NCc3ccco3)nc(OC)n2)c(OC)c1	110
CCCn1cnnc1C1CCCN(Cc2ccc3cc[nH]c3c2)C1 (stereo not drawn)	109
COc1cccc(CNC(=O)C2Cc3ccccc3CN2S(=O)(=O)c2ccc(C)cc2)c1 (stereo not drawn)	103
CC(=O)c1cccc(NC(=O)/C(=C/c2cccc([N+](=O)[O-])c2)NC(=O)c2ccccc2Br)c1	100
CCCC(=O)N1c2ccccc2C(=C2SC(C(=O)OC)=C(C(=O)OC)S2)C(=S)C1(C)C	109
CC(C)(C)c1ccc(C(=O)NNC(=O)C2OC3OC4(CCCCC4)OC3C3OC4(CCCCC4)OC23)cc1 (stereo not drawn)	100
O=S(=O)(c1cc(-c2nnc(C3CC3)o2)cs1)N1CCCC1	104
COc1ccc(-c2c[n+](CC(=O)OC3CC(C)CCC3C(C)C)c3n2CCCCC3)cc1 (stereo not drawn)	110
CCOc1cccc2c1OC(c1cc(OC)c(OC)c(OC)c1)N1N=C(c3ccco3)CC21 (stereo not drawn)	100
COCCOC(=O)c1c(C)oc2c1cc(NS(=O)(=O)c1cc(Cl)ccc1Cl)c1ccccc12	108
Cn1c(=O)n(CC(=O)N2CCCC2)c(=O)c2cc(S(=O)(=O)NCCC3=CCCCC3)ccc21	99
CN(C)C(=O)C1=CCN(C(=O)NC2CCCCC2)CC1	106
CCCCNc1ncnc2c1c(-c1ccccc1)cn2-c1ccccc1	120
SMILES	GIV Gai3 FP
Nc1ccn(C2OC(CO)C(O)C2OP(=O)(O)O)c(=O)n1 (stereo not drawn)	110
O=C(NCc1csc(-c2ccccc2)n1)[C@H]1CSCN1C(=O)c1ccccc1Cl	104
Cc1c(C(=O)Nc2ccc(F)cc2F)sc2ncn(CC(=O)N3CCN(c4ccccn4)CC3)c(=O)c12	98
CCCN1C(=O)c2ccccc2Sc2cc(-c3noc(-c4sc(C)nc4C)n3)ccc21	97
CC(C)c1nnc(-c2ccc(S(=O)(=O)N3CCOCC3)o2)o1	108
COCCCNc1ncnc2sc(C(=O)O)c(C)c12	103
O=C(c1cccc(Br)c1)N1c2ccccc2Sc2ccc(C(F)(F)F)cc21	114
CC(=O)N1CCCc2cc(C(=O)Nc3ccc(C)cc3)ccc21	98
CCOC(=O)C1=C(O)/C(=C/c2ccc(O)c(OC)c2)SC1=Nc1ccc(C)cc1	113
O=C(N/N=C/c1ccc(F)cc1)C1C(c2ccccc2)C(C(=O)N2CCOCC2)C1c1ccccc1 (stereo not drawn)	104
CCOC(=O)C1=C(C)NC(=O)NC1c1c(OCC(=O)N2CCCCC2)ccc2ccccc12 (stereo not drawn)	117
CC(C)OCCCNC(=O)CC1CCN(S(=O)(=O)c2cccs2)CC1	103
CCc1cc2c(NCCC(C)C)ncnc2s1	108
CCOc1ccc2c(c1)-c1c(ssc1=S)C(C)(C)N2C(=O)c1ccc(Cl)c([N+](=O)[O-])c1	101
Cc1ccsc1C1C=C(c2ccc(Br)cc2)Nc2ncnn21 (stereo not drawn)	97
Cc1ccnc(N2CCCC(C(=O)NCc3cccc(Cl)c3)C2)n1 (stereo not drawn)	102
COc1ccccc1Cn1c(=S)[nH]c2cc(C(=O)N3CCC(C(N)=O)(N4CCCCC4)CC3)ccc2c1=O	111
CCCCN(CC)S(=O)(=O)N1CCC(C(=O)NCCc2ccccc2)CC1	109
COc1cc(-c2nc(-c3ccc(NC(=O)c4cccs4)cc3)no2)cc(OC)c1OC	114
COc1ccc(NC(=O)C2CCN(C(=O)C3Sc4ccccc4NC3=O)CC2)cc1OC (stereo not drawn)	99
COc1cccc(C2CC(c3ccc(Br)cc3)=NN2S(=O)(=O)c2ccc(C)cc2)c1OC (stereo not drawn)	101
O=C(NC1CCCc2ccccc21)c1cccc(Nc2ncc(-c3cccc(F)c3)cn2)c1 (stereo not drawn)	101
CCCc1nc2ccccc2c(=O)n1NC(=O)c1c(O)c2ccccc2n(CC)c1=O	120
O=C(NCc1ccccc1)c1ccc(SCCN2CCCCC2)nc1	96
CC1CCc2[nH]nc(C(=O)NC3CC3)c2C1 (stereo not drawn)	102
SMILES	GIV Gai3 FP
CCOC(=O)CCCCC(=O)c1[nH]c(=O)[nH]c1CSc1nc(N)c(C#N)cc1C#N	107
CCn1c(=O)n(CC(=O)NCc2ccco2)c(=O)c2ccccc21	102
COc1ccc(NC(=O)CSc2nc3[nH]ncc3c(=O)n2-c2ccc(Cl)cc2Cl)cc1OC	106
COc1ccc(C(=O)CC2(O)C(=O)Nc3ccc(Br)cc32)cc1[N+](=O)[O-] (stereo not drawn)	106
CCOC(=O)C1=C(C)N=c2s/c(=C\c3cc(Br)c(OC)cc3OC)c(=O)n2C1c1ccc2c(c1)OCO2 (stereo not drawn)	115
CCc1ccc(N/C(SCc2cccc(F)c2)=C(/C#N)C(=O)NCc2ccc3c(c2)OCO3)cc1	110
CN(CC1COc2ccccc2O1)C(=O)CN(C)S(=O)(=O)c1cc2c(cc1Cl)NC(=O)CO2 (stereo not drawn)	105
O=C1C(=O)N(c2ccccc2)C(c2ccc3c(c2)OCO3)/C1=C(\O)c1ccccc1 (stereo not drawn)	103
CCOC(=O)C1=C(C)N=c2s/c(=C\c3cc([N+](=O)[O-])c(OC)cc3OC)c(=O)n2C1c1ccc(OC)cc1 (stereo not drawn)	111
Cc1noc(C)c1C1CCCN1Cc1ccccn1 (stereo not drawn)	110
O=C(Cc1c(F)cccc1Cl)Nc1cc(C(=O)NCc2ccco2)ccc1N1CC2CC(C1)c1cccc(=O)n1C2 (stereo not drawn)	105
O=C(c1cnc(N2CCOCC2)c2ccccc12)N1CCc2ccccc2C1	102
O=[N+]([O-])c1ccc2c(CSc3nc4ccc([N+](=O)[O-])cc4s3)c[nH]c2c1	104
N#CC(C(=O)NC(=O)c1ccccc1)=P(c1ccccc1)(c1ccccc1)c1ccccc1	111
CC(=O)Nc1ccc(-c2noc(C3CCCN(C(=O)c4ccc(C)cc4C)C3)n2)cc1 (stereo not drawn)	102
CCOC(=O)c1sc(NC(=O)Cn2c(=O)c3ccccc3n(CC)c2=O)nc1C	107
Cc1ccc(CNS(=O)(=O)c2ccc(-c3cnc(C4CCCC4)o3)s2)o1	106
CC(=O)C1=NN(c2ccccc2)C(c2cccc(OCc3ccc(Cl)cc3)c2)N1C(C)(C)C (stereo not drawn)	102
CCOc1ccc(C(=O)NCCc2sc3nc(-c4ccc(OC)cc4)nn3c2C)cc1OCC	101
O=C(Nc1ccc(O)c(-c2nc3ccccc3s2)c1)c1cccc(N2C(=O)CCC2=O)c1	104
Cc1nc(CCNC(=O)[C@H]2CCCN2S(=O)(=O)c2c(C)noc2C)cs1	108
Cc1csc(-c2cc(S(=O)(=O)NC3CCCC3)cn2CC(=O)N2CCCCC2)n1	106
CNC(=O)N1c2ccccc2NC2=C(C(=O)CC(C)(C)C2)C1c1ccc(C)cc1 (stereo not drawn)	101
CNC(=O)C1CCCN(c2nc3ncn(CC(=O)N4CCc5ccccc5C4)c(=O)c3s2)C1 (stereo not drawn)	100
CN(C)c1nc2ncn3c(=O)n(CC(=O)Nc4cccc(F)c4)nc3c2s1	102

Six successive records already listed:
SMILES	GIV Gai3 FP
C=CCOC(=O)C1=C(C)OC(N)=C(C#N)C1c1cccs1 (stereo not drawn)	108
COc1ccc(S(=O)(=O)Nc2cc(C(=O)N(C)Cc3ccccc3)ccc2N2CC3CC(C2)c2cccc(=O)n2C3)cc1 (stereo not drawn)	103
COc1ccc(NC(=O)CSc2n[nH]c(N)n2)c(OC)c1	100
Cc1ccc(CN(Cc2cc(=O)n3nc(-c4ccccc4)sc3n2)CC(C)C)cc1	113
CCOC(=O)c1c(NC(=O)Cn2c(-n3nc(C)cc3C)nc(C)c(C)c2=O)sc2c1CCCCC2	117
CCOC(=O)N1CCC(Nc2ncnc3c2cnn3-c2ccc(OC)cc2)CC1	105

Another view of part of the listing above.
GIV Gai3 FP	SMILES
115	CCOC(=O)C1=C(C)N=c2s/c(=C\c3cc(Br)c(OC)cc3OC)c(=O)n2C1c1ccc2c(c1)OCO2 (stereo not drawn)
100	CNC(=O)C1CCCN(c2nc3ncn(CC(=O)N4CCc5ccccc5C4)c(=O)c3s2)C1 (stereo not drawn)
111	N#CC(C(=O)NC(=O)c1ccccc1)=P(c1ccccc1)(c1ccccc1)c1ccccc1

(continued)
SMILES	GIV Gai3 FP
O=C(NCC1CCCO1)c1cc(NS(=O)(=O)c2ccc(Cl)cc2)ccc1N1CCNCC1 (stereo not drawn)	96
O=C(NCc1ccco1)c1ccc2c(=O)n(CC3CCCO3)c(SCc3ccc(Cl)cc3)nc2c1 (stereo not drawn)	110
COc1cccc(C(=O)N2N=C(C(F)(F)F)CC2(O)c2ccncc2)c1 (stereo not drawn)	108
COc1ccccc1CNC(=O)c1cc(-c2ccccc2)nc2ccccc12	107
COc1cccc(-n2c(=S)sc3c(=O)n(-c4ccc(F)cc4)c(=S)[nH]c32)c1	107
CCCCC(O)(CCCC)C1=NN(c2ccc(F)cc2)C(=O)C(c2ccccc2)(c2ccccc2)O1	112
COc1cccc(Oc2ccnc(-c3cccc(C(=O)Nc4cccc(Br)c4)c3)n2)c1	104
Cc1ccc(C(=O)Nc2sc3c(c2C(=O)Nc2ccccn2)CCCCC3)cc1	107
Cc1c(C(=O)N2CC(C)CC(C)C2)sc2ncn(C)c(=O)c12 (stereo not drawn)	105
CCOc1ccc2[nH]c3nc4ccccc4nc3c2c1	103
O=C(CC1CCN(C(=O)c2ccc3oc(C4CC4)nc3c2)CC1)N1CCN(c2ccccn2)CC1	96
O=C(Nc1ccc(Br)cc1F)c1cc(S(=O)(=O)N2CCN(C3CCCCC3)CC2)ccc1F	109
